VDR inhibitor – blocks the human vitamin D receptor; P11473; 400,000 tested, 0.93% active; VDR-SRC2-3 peptide fluorescence polarization, 2 h; Potency, µM, for inactives: max response, negative = inhibition, most hits filed as inhibitors; active = well fitted inhibition curve with a large enough effect; inconclusive = small, poorly fitted or top-dose-only effect, or another doubt; inactive = no such curve, though single readings can be large or run the other way; also: series mostly up to about 120 µM
Target sequence (P11473 whole entry, looked up): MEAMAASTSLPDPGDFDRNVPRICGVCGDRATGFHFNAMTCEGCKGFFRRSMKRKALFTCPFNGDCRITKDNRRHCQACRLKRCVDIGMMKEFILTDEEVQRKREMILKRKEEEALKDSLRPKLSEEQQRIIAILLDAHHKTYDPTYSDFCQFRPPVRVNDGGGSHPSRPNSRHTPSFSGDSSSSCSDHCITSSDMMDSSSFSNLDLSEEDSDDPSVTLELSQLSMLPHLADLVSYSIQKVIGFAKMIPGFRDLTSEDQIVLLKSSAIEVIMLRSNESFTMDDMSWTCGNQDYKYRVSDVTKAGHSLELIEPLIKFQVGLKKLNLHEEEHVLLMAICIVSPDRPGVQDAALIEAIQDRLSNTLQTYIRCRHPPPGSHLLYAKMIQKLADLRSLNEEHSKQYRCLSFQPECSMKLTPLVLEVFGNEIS
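After 23 nl compound addition and a short centrifugation, plates sat for 2 hours at ambient temperature; polarization of fluorescence then indicated loss of VDR binding to peptide SRC2-3.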
Starred values were filed as active, the others as inactive; ? = inconclusive. % is scaled to controls: 0 for no effect and ±100 for the full control effect; potency is read from the fitted curve at half-maximal effect. Only part of the results is shown. The share of hits here may be higher or lower than overall.

SMILES	VDR inhibitor
O=C(N1CCOCC1)N1CCN(c2ccccc2)CC1	-4%
O=C(O)C1=CC(c2ccc(Br)cc2)n2ncnc2N1 (stereo not drawn)	-18%
CCC(=O)N1CCN(c2ccc(NC(=O)COc3ccccc3Cl)cc2)CC1	-12%
Cc1cc2oc(=O)cc(CN3CCN(Cc4ccccc4)CC3)c2cc1Cl	-24%
C=CC1=C2C=C(C3CC3)N(CC3CC3)C=C2C(=O)C(C)(OC(=O)c2ccco2)C1=O (stereo not drawn)	-13%
COc1cc(NC(=O)c2ccccc2F)c(OC)cc1NC(=O)CN1CCCCC1	-17%
CCCc1nc2ccccc2n1CCOC	-11%
O=c1cc(-c2ccccc2)oc2ccccc12	3%
Cc1ccccc1CSCC(=O)Nc1c(C)n(C)n(-c2ccccc2)c1=O	15%
N/C(=N\OC(=O)CCc1ccccc1)c1ccc(Cl)cc1	-4%
COc1ccc(COC(=O)c2sc3nc4n(c(=O)c3c2C)CCC4)cc1	-13%
O=C(Nc1ccccc1)NC1CCCc2ccccc21 (stereo not drawn)	-14%
Cc1cc(C)n2c(Nc3ccc4c(c3)OCCO4)c(-c3ccc(Cl)cc3)nc2n1	1%
Cc1nc2cc(C(F)(F)F)ccc2n1CCNc1nc(-c2cc(Cl)c(N)c(Cl)c2)cs1	-2%
Cc1ccc(S(=O)(=O)NCCC(=O)Nc2ccc(S(=O)(=O)NC(C)C)cc2)cc1	18%
Cc1ccc2[nH]c3c(c2c1)CN(C(=O)CN1CCN(c2ccccn2)CC1)CC3	15%
O=C(CSc1nnc(Cc2ccccc2)o1)NCCc1ccccc1	5%
CN1CCN(C(c2ccc(F)cc2)c2sc3nc(-c4ccco4)nn3c2O)CC1 (stereo not drawn)	4%
Cn1cccc1CC(=O)NNC(=S)NC(=O)c1ccc(F)cc1	-5%
Cc1ccc(N(CC(O)Cn2c3ccccc3c3ccccc32)S(=O)(=O)c2ccc(F)cc2)cc1 (stereo not drawn)	0%

Some of the entries so far, with the structure last.
VDR inhibitor | SMILES
4% | CN1CCN(C(c2ccc(F)cc2)c2sc3nc(-c4ccco4)nn3c2O)CC1 (stereo not drawn)
15% | Cc1ccccc1CSCC(=O)Nc1c(C)n(C)n(-c2ccccc2)c1=O
-2% | Cc1nc2cc(C(F)(F)F)ccc2n1CCNc1nc(-c2cc(Cl)c(N)c(Cl)c2)cs1
3% | O=c1cc(-c2ccccc2)oc2ccccc12
15% | Cc1ccc2[nH]c3c(c2c1)CN(C(=O)CN1CCN(c2ccccn2)CC1)CC3
1% | Cc1cc(C)n2c(Nc3ccc4c(c3)OCCO4)c(-c3ccc(Cl)cc3)nc2n1
-17% | COc1cc(NC(=O)c2ccccc2F)c(OC)cc1NC(=O)CN1CCCCC1

Other results:
SMILES	VDR inhibitor
COc1ccc(-c2nc(SCC(=O)NCCCc3ccccc3)n[nH]2)cc1	13%
Cc1ccccc1NC(=O)C1CCN(C(=O)NC2CCCCC2)CC1	-2%
CCC(=O)N1CCN(c2ccnc3cc(Cl)ccc23)CC1	8%
NC(=O)C1C2CCC(C2)C1C(N)=O (stereo not drawn)	3%
CC(=O)Oc1ccc2c(c1)CCC1C2CC[C@]2(C)C(=O)CCC12 (stereo partly drawn)	-5%
Cc1ccc(NC(=S)NCC2CCN(C(C)c3ccccc3)C2)cc1C (stereo not drawn)	-9%
COc1ccc(-n2c(C)nnc2SCC(=O)N2CCOCC2)cc1	4%
CCC(NC(=O)C1CCC1)c1ccc(C)cc1 (stereo not drawn)	-15%
O=C(NNC1=C(C(=O)C(F)(F)F)CCC1)c1ccncc1	12%
Cc1c(O)ccc(C(=O)CN2CCN(c3ccccc3)CC2)c1O	-7%
CN(CC(=O)Nc1ccc(N2CCOCC2)cc1)Cc1c(O)ccc2ccccc12	28µM*
COc1ccc(C(=O)N=c2sc3ccccc3n2C)cc1	4%
O=S(=O)(c1ccc2c(c1)OCO2)N1CCN(c2nc(-c3cccs3)nc3ccccc23)CC1	0%
COc1ccc(-c2noc(CCC(=O)N(C)c3cccc(C)c3)n2)cc1	-9%
CN1CCN(CCNC(=O)Nc2ccc([N+](=O)[O-])cc2)CC1	-16%
Cc1cccc(OCCNC(=O)c2ncn[nH]2)c1	11%
Cc1nnc(SCc2nnc(-c3ccccc3Br)o2)n1-c1ccccc1	-13%
Cn1nc(C(F)(F)F)c(C(=O)Nc2ccc(F)cc2F)c1Sc1ccc(C(F)(F)F)cc1	20%
CC1CCC(NC(=O)C2CCC(CNS(=O)(=O)c3cccc4nsnc34)CC2)CC1 (stereo not drawn)	-20%
CCOc1ccccc1CNc1nc2ccccc2n1C	-16%
COc1ccccc1C(=O)NNC(=O)CCCN1C(=O)/C(=C/c2cccs2)SC1=S	-5%
O=C1CSC(c2ccccc2[N+](=O)[O-])N1c1cccc(F)c1 (stereo not drawn)	-6%
C1CC1Cc1noc(CN2CCN(C3C4CC5CC(C4)CC3C5)CC2)n1 (stereo not drawn)	5%
Cc1ccc2cc(NC(=O)Cc3ccccc3)ccc2n1	-11%
CCC(=O)c1c[nH]c(C(=O)NCCCN2CCOCC2)c1	-2%
NC(=O)[C@@H]1CCCN1C(=O)[C@H](Cc1cnc[nH]1)NC(=O)[C@@H]1CCC(=O)N1	2%
COc1cccc(N2[C@@H](CC(=O)O)c3ccccc3S2(=O)=O)c1	-5%
CC1=C(CC(=O)O)c2cc(F)ccc2C1=Cc1ccc(S(C)(=O)=O)cc1	-11%
Cc1ccc(NC(=O)CN2C(=O)N/C(=C/c3ccc(C)s3)C2=O)cc1	-8%
Cc1cccn2c(=O)c3cc(C(=O)N4CCCC(C)C4)sc3nc12 (stereo not drawn)	-20%

2 of the compounds above, field by field:
CCC(=O)c1c[nH]c(C(=O)NCCCN2CCOCC2)c1
  VDR inhibitor: -2%

NC(=O)[C@@H]1CCCN1C(=O)[C@H](Cc1cnc[nH]1)NC(=O)[C@@H]1CCC(=O)N1
  VDR inhibitor: 2%

The results go on:
SMILES	VDR inhibitor
Cc1cc(C(=O)NC2CCC(C)CC2)c(C)o1 (stereo not drawn)	18%
Cc1ccc2cc(CN(CCN3CCOCC3)Cc3nnnn3Cc3ccco3)c(=O)[nH]c2c1C	-3%
CC(=O)Nc1cccc(C(=O)NC(C)c2ccc(S(N)(=O)=O)cc2)c1 (stereo not drawn)	-7%
CCn1cc(CNC(=O)C2C3CCC(C3)C2C(=O)O)cn1 (stereo not drawn)	-4%
COc1ccccc1CNC(=O)Cn1c(=O)oc2cc(S(=O)(=O)NCc3ccccc3)ccc21	7%
CC(C)(C)n1nnnc1C(c1cccs1)N(Cc1cccnc1)Cc1ccccc1Cl (stereo not drawn)	-27%
NC(=O)c1sc2nnc(-c3ccccc3)c(-c3ccccc3)c2c1N	-8%
COc1ccc(NC(=O)Cn2nc(-c3ccccc3)c3cnc4ccc(C)cc4c32)cc1	5%
Cc1ccc(C)c(NC(=O)CN(C)C(=O)CN2C(=O)C3CCCCC3C2=O)c1 (stereo not drawn)	-2%
COc1ccc(CCC(=O)NC(C)C)cc1	-3%
COc1ccc(NC(=O)Cn2c3ccccc3c3nc4n(c(=O)c32)CCS4)cc1OC	-11%
COCCn1cnc2c1c(=O)n(CC(=O)NC(=O)NC(C)(C)C)c(=O)n2Cc1ccccc1	2%
CCS(=O)(=O)N1Cc2ccccc2CC1C(=O)N(C)CC(=O)Nc1cccc(F)c1 (stereo not drawn)	-1%
COc1ccc(CCNCC(=O)N2C(C)CCCC2C)cc1OC (stereo not drawn)	2%
CCCC(=O)NCCc1cc2c(C)ccc(C)c2[nH]c1=O	?
O=C(COC(=O)c1ccc(S(=O)(=O)NCc2ccco2)cc1)NCc1ccccc1	14%
Cc1cc(C)c2oc(-c3cccc(NC(=O)c4cccc(F)c4)c3C)nc2c1	16%
O=C(CCN1CCN(C/C=C/c2ccccc2)CC1)Nc1ccccc1Cl	-2%
O=C(O)COCC(=O)Nc1ccc2c(c1)oc1ccccc12	3%
CCN1CCC(N(Cc2ccc(F)cc2)C(=O)Nc2cc(C)ccc2C)CC1	15%

Single values from the entries so far:
VDR inhibitor with O=C(O)COCC(=O)Nc1ccc2c(c1)oc1ccccc12 stands at 3%
VDR inhibitor with CCN1CCC(N(Cc2ccc(F)cc2)C(=O)Nc2cc(C)ccc2C)CC1 stands at 15%
VDR inhibitor with O=C(CCN1CCN(C/C=C/c2ccccc2)CC1)Nc1ccccc1Cl stands at -2%
VDR inhibitor with CCS(=O)(=O)N1Cc2ccccc2CC1C(=O)N(C)CC(=O)Nc1cccc(F)c1 (stereo not drawn) stands at -1%

Continuation:
SMILES	VDR inhibitor
COc1ccc(NC(=O)CC2C(=O)N(c3ccc(C)cc3)C(=O)N2Cc2ccc3c(c2)OCO3)cc1 (stereo not drawn)	-4%
c1ccc(-c2cnn3nnnc3n2)cc1	3%
O=C(Nc1ccc(F)cc1)c1ccc(=O)[nH]n1	15%
O=C1CCN(CC2CCCCC2)C=C1C(=O)c1ccccc1	-4%
O=[N+]([O-])c1cccnc1Oc1ccc(OCc2ccccc2)cc1	2%
COC(=O)c1ccc(C(=O)NC(=S)Nc2nc3c(s2)CCCC3)cc1	-21%
CC(C)(C)OC(=O)N1CCC(c2c(C(=O)NCc3ccccc3)cnn2-c2ccccc2)CC1	17%
CC1(c2ccccc2)NC(=O)N(CC(=O)NCCC2=CCCCC2)C1=O (stereo not drawn)	-15%
COC(=O)C(C)Sc1ccc2nnc(-c3cccc(F)c3)n2n1 (stereo not drawn)	-5%
Cc1cc(C)nc(N2CCC(C(=O)NCC3CCCCC3)CC2)n1	-20%
C/C=C\C=C/C(=O)Nc1cccc(C2=NOC3(C2)C[C@@H](C(N)=O)N(C(=O)CCCCC)C3)c1 (stereo partly drawn)	?
O=C(Cn1nnc2ccccc21)OCC(=O)c1ccc(F)cc1	-4%
CCn1c(Cc2ccccc2)nnc1SCC(=O)Nc1nc2ccccc2s1	15%
O=C(CN1C(=O)NC2(CCCCC2)C1=O)Oc1ccc2c(C(F)(F)F)cc(=O)oc2c1	?
Cc1ncc([N+](=O)[O-])n1CC(=O)N/N=C/c1ccccc1F	-27%
CC1CN(c2nc3ccccc3cc2-c2ccccc2)CC(C)O1 (stereo not drawn)	11%
Cc1ccc(-c2nc3nc(C)cc(N4CCN(c5cc(Cl)ccc5C)CC4)n3n2)cc1	-10%
CCCc1noc(-c2ccc(-c3ccccc3)cc2)n1	-5%
COc1ccc(-n2c(C)cc(C(=O)CSc3nn4c(=O)c(C(C)(C)C)nnc4s3)c2C)cc1	2%
C#CCOc1ccc(/C=N/NC(=O)c2cccnc2)cc1OCC	10%
COc1cccc(N2C(=O)CN(Cc3ccccc3)C2=S)c1	-5%
CCOC(=O)c1c(S(=O)(=O)NCC(=O)Nc2ccccc2OC)c(C)n(C)c1C	2%
CCCCC/C=C\C/C=C\C/C=C\CCCCC(=O)NCCCC(=O)O	-14%
CC(C(=O)NCc1ccccc1)N1Cc2ccccc2C1=O (stereo not drawn)	11%
COc1ccc(C)cc1-n1c(C)cc(C=O)c1C	11%
CN(C)c1ccc(CNC(=O)Cn2c(=O)oc3cc(S(=O)(=O)NCc4ccccc4)ccc32)cc1	2%
COc1ccc(-c2nc(SCC(=O)NCc3ccccc3Cl)n[nH]2)cc1	-2%
O=C(NCc1ccc(Cl)cc1)C1CCCN(C(=O)c2ccc(Cl)cc2)C1 (stereo not drawn)	6%
CCOc1ccc(NC(=O)C2CCN(S(=O)(=O)c3c(C)noc3/C=C/c3cccs3)CC2)cc1	-1%
COC(=O)c1ccc(NC(=O)CC2C(=O)N(c3cccc(OC)c3)C(=O)N2Cc2ccco2)cc1 (stereo not drawn)	0%

The final two entries of the section above open the next one.
SMILES	VDR inhibitor
CCOc1ccc(NC(=O)C2CCN(S(=O)(=O)c3c(C)noc3/C=C/c3cccs3)CC2)cc1	-1%
COC(=O)c1ccc(NC(=O)CC2C(=O)N(c3cccc(OC)c3)C(=O)N2Cc2ccco2)cc1 (stereo not drawn)	0%
O=C(CO/N=C/c1ccccc1OC(F)F)NC1CCCCC1	21%
Cc1ccc(O)c(NC(=O)c2ccc3c(c2)C(=O)N(Cc2cccnc2)C3=O)c1	-11%
Cc1nc(SCCC(=O)O)c2ccccc2n1	14%
COc1ccc(CCNC(=O)c2cc3c(=O)[nH]c4ccc(C)cc4c3s2)cc1OC	-21%
CC(Cc1cccs1)NC(=O)c1cccs1 (stereo not drawn)	4%
Cc1ccc(C)c(NC(=O)C2C(c3ccccc3)C2(Cl)Cl)c1 (stereo not drawn)	2%
O=C(CCCN1C(=O)/C(=C/c2ccccc2)SC1=S)Nc1ccccc1O	?
Cn1ncc(Cl)c(Oc2ccc(C(C)(C)C)cc2)c1=O	3%
Cc1ccc(CCC(=O)Nc2ccc(N(C)C)cc2)o1	-2%
C/C(Cc1ccccc1)=N\NC(=O)C1CCCCC1	1%
COC(=O)c1ccccc1NC(=S)NC(NC(=O)c1ccccc1[N+](=O)[O-])C(Cl)(Cl)Cl (stereo not drawn)	-22%
CCCc1nc(N2CCN(S(=O)(=O)c3ccc(Cl)cc3)CC2)c2c(C)c(C)sc2n1	1%
O=S(=O)(Nc1ccc(N2CCOCC2)nn1)c1ccccc1	-4%
CCC(C)NC(=O)CSc1n[nH]c(=O)n1CCc1ccccc1 (stereo not drawn)	-1%
COc1ccc(Cl)cc1CSc1ncn[nH]1	5%
O=C(Nc1ccc(COc2ccccc2)cc1)c1cccc([N+](=O)[O-])c1	-2%
CC(C)c1nc(SCC(=O)N2c3ccccc3CC2C)c2ccccc2n1 (stereo not drawn)	15%
O=C(c1ccc([N+](=O)[O-])cc1Cl)N1CCN(c2ccccn2)CC1	-6%
CC(C)Cn1c(=O)c2sccc2n2c(CCCC(=O)N3CCN(c4ccc(F)cc4)CC3)nnc12	0%
O=C1CC(c2ccccc2)CCc2sccc2N1 (stereo not drawn)	-2%
COCC(C)NCc1cccc([N+](=O)[O-])c1 (stereo not drawn)	-1%
